Assay outcomes (PubChem BioAssay)
RN4220 kill – growth inhibition of S. aureus RN4220, primary screen, OD600. inhibition, % (concentration not given with the values). 330,000 compounds, 0.33% hits. 16 h. AID 1259311, 2017;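 active = z-score of -3 or lower and OD600 up to 0.18 on both plates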;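 also: plate controls were untreated cells for no effect and reference antibiotic for full effect; stock transfer was 100 nL into about 80 µL; one replicate is shown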
PrP 5UTR inh – inhibition of PrP 5' UTR reporter expression; inhibition, % (concentration not given with the values); AID 488862, 2010; 340,000 compounds, 0.35% hits; cell-based PrP 5' UTR mRNA reporter, plate reader;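 active = every replicate at 50% or more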;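 also: 0 = median of the neutral control wells; tested in H4 reporter cells; numbers are from one replicate; inactives centre near -14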
Mtb hypoxia inh – PubChem AID 1159583; M. tuberculosis hypoxia-regulated fluorescent reporter, fluorescence; fluorescence inhibition, % (test concentration not listed); 300,000 compounds, 0.1% hits;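 active = 35 to 45% if threefold the growth effect, above 45% if 1.5-fold the growth effect; inactive = the rest, general growth blockers included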;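 also: wells of about 50 µL received 100 nL stock; 0% = vehicle wells and 100% = reference inhibitor wells; whole bacteria with a GFP reporter of the hypoxia response; strong numbers were not always called active; many hits fall short of the cut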
ugtP null kill – growth inhibition of ugtP-null S. aureus, primary screen, RN4220 ugtP deletion, OD600 | 16 h; some inactives read as strong as hits | growth inhibition, % (test concentration not listed) | 330,000 compounds, 0.54% hits | AID 1259309, 2017;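 active = z-score under -3 and OD600 up to 0.15 on both plates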;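 also: plate controls were untreated wells for no effect and antibiotic for full effect; wells of about 80 µL received 100 nL stock; the first replicate is given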
Autofluor counter – flagged as autofluorescent in microsphere protease counterscreen | compound autofluorescence counterscreen, microsphere flow cytometry; stronger effect = higher value | fluorescence intensity (concentration not given with the values) | 360,000 compounds, 3.1% hits | AID 624483;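 active = at least 3 SD above the mean of all compounds, about 16000 in these data; inconclusive = too few beads counted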;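 also: 100 nL of 1 mM stock went into each well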
BJeLR viability – MLPCN primary cell-based screen for lethality selective to Ras in HRASV12 cells; BJeLR (HRASV12) viability, CellTiter-Glo ATP luminescence, 48 h; reference of the scale not given here; AID 1554, 2009; 300,000 compounds, 0.17% hits; inhibition, % (test concentration not listed);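 active = replicate mean above 50%; inconclusive = above 50% but judged a plate artefact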;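 also: 50 nL library stock added to about 25 µL; numbers are from one replicate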
Mtb hypoxia inh growth – also measured in Mtb hypoxia inh; calls as there; growth inhibition, %; measured here: M. tuberculosis growth (absorbance);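 0% = vehicle and 100% = reference antibiotic; read after six days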
Starred values were filed as active, the others as inactive; ? = inconclusive; / = not tested or not shown.

[1] O=C(NCCS(=O)(=O)N1CCN(c2cccc(Cl)c2)CC1)c1ccco1
[2] CCOC(=O)c1sc2ncn(CC(=O)N(CC)CC)c(=O)c2c1C
[3] C/C(CCc1oc2c(Br)cc(Br)cc2c1-c1ccc(C)o1)=N\O
[4] Clc1ccc(C=NNc2nc(Cl)nc3ccccc23)cc1
[5] COC(=O)Cn1c(=O)c2c(nc(Br)n2Cc2ccccc2Cl)n(C)c1=O
[6] CCC(=O)OC1(c2cccc(C)c2)CC(C)N(C)CC1C (centres undefined)
assay / entry	1	2	3	4	5	6
RN4220 kill	2.3	3.7	/	6.1	3.9	-7.8
PrP 5UTR inh	-20	-3	-11	/	-8	-11
Mtb hypoxia inh	-3	4	/	9	-11	14
Mtb hypoxia inh growth	8	9	/	6	1	8
ugtP null kill	3	-2	/	-2	-2	3
Autofluor counter	5683	9752	11506	/	2187	3029
BJeLR viability	-1	-12	-4	/	6	-3

[7] COc1ccc(C2c3ccsc3CCN2C(=O)NC(C)(C)C)cc1 (centres undefined)
[8] CCCOc1ccc(CC(=O)NNC(=S)Nc2ccccc2)cc1Br
[9] O=C(Cn1cnc([N+](=O)[O-])n1)N/N=C/c1ccc2ccccc2c1
[10] COc1cc(S(=O)(=O)N(Cc2ccccn2)Cc2ccccc2Cl)ccc1-n1cnnn1
[11] CC(C)(C)NC(=O)c1ccccc1-c1nc(-c2ccccc2Cl)no1
[12] O=C(NN=Cc1ccc([N+](=O)[O-])o1)c1cc2c(ccc3ccccc32)o1
assay / entry	7	8	9	10	11	12
RN4220 kill	-2.7	11	/	16	3.1	98*
PrP 5UTR inh	-28	-27	-12	-7	-32	/
Mtb hypoxia inh	-8	/	/	0	/	-6
Mtb hypoxia inh growth	2	/	/	4	/	1
ugtP null kill	-1	4	/	5	-3	99*
Autofluor counter	6021	3104	2165	9834	2710	/
BJeLR viability	-2	0	-3	-3	1	/

[13] CC(C)c1ccc(NC(=O)C(=O)C2C(=O)Nc3ccccc32)cc1 (centres undefined)
[14] Cc1ccc(-c2nnc(N3CCOCC3)c3ccccc23)cc1S(=O)(=O)N(C)C
[15] O=C(CNC(=O)[C@@H]1Cc2ccccc2CN1)NC1CCCC1
[16] O=C(NCCCN1CCN(c2cccc(Cl)c2)CC1)c1nc(-c2ccncc2)no1
[17] CN(C)C=Nc1c(C#N)cnn1-c1ncnc2sc(-c3ccccc3)cc12
[18] O=c1cc(-c2ccccc2Cl)oc2c(NS(=O)(=O)c3cccs3)ccc(O)c12
assay / entry	13	14	15	16	17	18
RN4220 kill	0.4	-1.9	3.4	2.2	-3.8	-4.9
PrP 5UTR inh	-9	-10	-5	-10	/	-19
Mtb hypoxia inh	12	-5	0	3	3	-1
Mtb hypoxia inh growth	2	-11	-2	10	10	6
ugtP null kill	-27	3	6	0	-23	-39
Autofluor counter	3188	3617	5242	10059	/	4104
BJeLR viability	-4	16	5	-4	/	-5

[19] CC12CN3CC(C)(CN(C1)C3c1ccc3c(c1)OCO3)C2 (centres undefined)
[20] CCOc1cccc(N2C(=O)CC(N3CCC(C(N)=O)(N4CCCCC4)CC3)C2=O)c1 (centres undefined)
[21] CCc1ccc(CCC(=O)Nc2ccc(Br)cc2)o1
[22] CC(=O)Nc1ccccc1-c1nc2ccc(C(=O)N3CCN(c4cc(C)ccc4C)CC3)cc2[nH]c1=O
[23] O=C1c2cccc3c(N4CCOCC4)c([N+](=O)[O-])cc(c23)C(=O)N1c1cccc2ccccc12
[24] Fc1ccccc1C=Nn1c(COc2ccccc2)n[nH]c1=S
assay / entry	19	20	21	22	23	24
RN4220 kill	6.0	3.8	-1.1	7.0	95*	6.7
PrP 5UTR inh	-22	1	2	-28	-10	/
Mtb hypoxia inh	5	/	0	1	-2	18
Mtb hypoxia inh growth	0	/	-6	6	5	6
ugtP null kill	3	5	13	13	97*	6
Autofluor counter	2451	4849	3388	5317	2398	/
BJeLR viability	-4	-1	4	-3	-50	/

[25] CC(C)NC(=O)NC(=O)COc1ccc(Br)cc1Br
[26] COc1ccc(Nc2oc(COc3cccc(C)c3)nc2C#N)cc1
[27] Cc1ccc(C)c(OCc2nnc(N)s2)c1
[28] COc1cccc(CC(=O)n2nc(N)c3cc4ccc(OC)cc4nc32)c1
[29] CC(C(=O)N(C1CC1)C1(C(=O)Nc2ccccc2)CCCC1)N1C(=O)c2ccccc2C1=O (centres undefined)
[30] Cc1cc(OCC(=O)NCC2CCC(C(=O)O)CC2)c2c(C)c(Cc3ccccc3)c(=O)oc2c1 (centres undefined)
assay / entry	25	26	27	28	29	30
RN4220 kill	6.5	3.3	0.0	/	-5.0	4.2
PrP 5UTR inh	-45	-22	3	-14	-15	-10
Mtb hypoxia inh	-8	/	/	/	8	/
Mtb hypoxia inh growth	14	/	/	/	4	/
ugtP null kill	-12	10	-5	/	-10	-10
Autofluor counter	2481	4852	2099	5557	3240	5576
BJeLR viability	-13	0	-7	-4	-5	0

[31] CC1CN(C(=O)c2cccc(S(=O)(=O)Nc3ccccc3Cl)c2)CC(C)O1 (centres undefined)
[32] O=C(CNC(=O)/C=C/c1ccco1)N=Nc1c(O)[nH]c2ccccc12
[33] Cn1c(=O)c2nc(SCc3ccccc3)n(C)c2n(C)c1=O
[34] COc1ccc(NC(=O)c2ccco2)cc1NC(=O)c1cccnc1
[35] N#Cc1cc2c(=O)n3ccccc3nc2n(CCCn2ccnc2)c1=N
[36] Cc1csc(=O)n1CC(=O)OCC(=O)NNC(=O)c1ccc([N+](=O)[O-])cc1
assay / entry	31	32	33	34	35	36
RN4220 kill	8.6	5.1	-0.1	2.0	4.1	6.9
PrP 5UTR inh	-16	5	-11	-21	-32	-30
Mtb hypoxia inh	13	1	24	5	-15	3
Mtb hypoxia inh growth	9	13	8	-4	-3	-8
ugtP null kill	4	-4	2	3	-1	16
Autofluor counter	5922	5269	2869	9998	11357	?
BJeLR viability	-11	-9	/	-2	-5	7

[37] COCCN(C(=O)CSc1nnc(C)n1Cc1ccccc1)c1c(N)n(CC(C)C)c(=O)[nH]c1=O
[38] O=[N+]([O-])c1cccc(Nc2nc(Cl)nc(Cl)n2)c1
[39] O=C(NCCCN1CCc2ccccc2C1)Nc1ccc(Cl)cc1
[40] CC(C)c1c(C(=O)N/N=C/c2ccc(OCc3ccccc3)cc2)nnn1-c1nonc1N
[41] c1ccc(-c2cnc(-c3cccnc3)o2)cc1
[42] COc1ccc(CCC(=O)N2CCN(S(=O)(=O)c3cccs3)CC2)cc1
assay / entry	37	38	39	40	41	42
RN4220 kill	12	2.9	-2.6	/	8.2	5.5
PrP 5UTR inh	-7	-19	-28	-33	-59	0
Mtb hypoxia inh	1	11	-1	/	/	13
Mtb hypoxia inh growth	3	8	-7	/	/	0
ugtP null kill	5	5	-18	/	17	3
Autofluor counter	4700	2399	22133*	5052	2852	5323
BJeLR viability	3	-1	4	15	/	/

A draw from above in order of molecular weight, descending:
[40] CC(C)c1c(C(=O)N/N=C/c2ccc(OCc3ccccc3)cc2)nnn1-c1nonc1N
[42] COc1ccc(CCC(=O)N2CCN(S(=O)(=O)c3cccs3)CC2)cc1
[36] Cc1csc(=O)n1CC(=O)OCC(=O)NNC(=O)c1ccc([N+](=O)[O-])cc1
[39] O=C(NCCCN1CCc2ccccc2C1)Nc1ccc(Cl)cc1
[38] O=[N+]([O-])c1cccc(Nc2nc(Cl)nc(Cl)n2)c1
assay / entry	40	42	36	39	38
RN4220 kill	/	5.5	6.9	-2.6	2.9
PrP 5UTR inh	-33	0	-30	-28	-19
Mtb hypoxia inh	/	13	3	-1	11
Mtb hypoxia inh growth	/	0	-8	-7	8
ugtP null kill	/	3	16	-18	5
Autofluor counter	5052	5323	?	22133*	2399
BJeLR viability	15	/	7	4	-1

Next part:
[43] CCCNC(=O)CCn1cc(-c2ccc(OC)cc2)nc1CCN
[44] O=C1NCCN(Cc2ccoc2)C1CC(=O)N(CCO)Cc1ccccc1 (centres undefined)
[45] O=C1C2CCC(C(O)C2)N1Cc1ccccc1 (centres undefined)
[46] CCCCOC(=O)CSc1nc2c(cc1C#N)C(=O)CC(C)(C)C2
[47] Cc1cccc(C)c1NS(=O)(=O)c1c(C(=O)N2CCCCC2)c(C)n(C)c1C
[48] CN(C)CCCOC(=O)c1ccccc1
assay / entry	43	44	45	46	47	48
RN4220 kill	4.2	3.1	2.2	4.0	3.5	1.7
PrP 5UTR inh	-22	-24	-31	-54	0	-14
Mtb hypoxia inh	5	2	8	/	11	0
Mtb hypoxia inh growth	4	6	16	/	19	6
ugtP null kill	2	-5	2	8	1	-3
Autofluor counter	3052	3986	9084	3460	5416	5458
BJeLR viability	5	1	10	6	-1	-5

[49] COCc1c(C(=O)OCC(=O)N2c3ccccc3CC2C)oc2ccccc12 (centres undefined)
[50] CCNC(=O)COC(=O)c1cc(C)n(-c2ccccc2)c1C
[51] Cn1c(=O)c2c(nc(SCc3ccc(C(=O)O)cc3)n2C)n(C)c1=O
[52] O=C(NCCN1CCNCC1)c1ccccc1O
[53] CCOC(=O)/C=c1\s/c(=C\c2ccc3cc(OC)ccc3c2)c(=O)n1CC(=O)NCc1ccc2c(c1)OCO2
[54] Cc1oc(-c2ccc(-c3ccccc3)cc2)nc1CN1CCN(CC(=O)N(C)C)CC1
assay / entry	49	50	51	52	53	54
RN4220 kill	5.3	1.5	6.2	2.6	/	-0.2
PrP 5UTR inh	0	-38	-16	/	-37	-13
Mtb hypoxia inh	6	7	-6	3	/	3
Mtb hypoxia inh growth	4	4	14	-3	/	12
ugtP null kill	13	1	3	6	/	-5
Autofluor counter	6746	3254	3103	3593	3969	4597
BJeLR viability	-3	-2	2	-4	5	6

[55] COc1cccc(CN(C)CC(=O)NCc2ccccc2Cl)c1OC
[56] COc1ccc(C(=O)NC2(C(F)(F)F)C(=O)Nc3c2c(=O)[nH]c(=O)n3CCc2ccc(OC)c(OC)c2)cc1 (centres undefined)
[57] CCOc1ccc(CN2CCN(Cc3cccc4c3OCO4)CC2CCO)cc1 (centres undefined)
[58] COC(=O)c1sccc1NC(=O)Cn1nnc(-c2ccccc2C)n1
[59] CCN(CC)c1ccc(N=Cc2ccc([N+](=O)[O-])o2)cc1
[60] Cc1cccc(NC(=O)CCC(=O)NCCO)c1
assay / entry	55	56	57	58	59	60
RN4220 kill	1.5	2.0	1.8	14	-3.1	8.6
PrP 5UTR inh	0	-19	-64	-11	-35	-26
Mtb hypoxia inh	6	7	0	-7	-16	4
Mtb hypoxia inh growth	-2	11	20	-2	12	10
ugtP null kill	3	5	6	7	30	6
Autofluor counter	4130	5623	2841	3282	1423	?
BJeLR viability	-11	5	-4	2	-13	-2

[61] CN1CCN(C(=S)c2cn(CCOc3ccccc3F)c3ccccc23)CC1
[62] O=C(NN=Cc1ccc(F)cc1)c1ccc(F)cc1
[63] Cc1ccc(-c2n[nH]c(=S)n2N=Cc2cc3c(cc2[N+](=O)[O-])OCO3)cc1
[64] O=C(Nc1ccccc1)c1ccc(N2CCN(c3ccccn3)CC2)c(S(=O)(=O)N2CCOCC2)c1
[65] COC(=O)CN(c1ccccc1OC)S(=O)(=O)c1ccccc1
[66] COc1ccc(Nc2cc(C(=O)NCCCN3CCN(C)CC3)c3ccccc3n2)cc1OC
assay / entry	61	62	63	64	65	66
RN4220 kill	9.7	4.0	-1.2	1.4	4.0	1.4
PrP 5UTR inh	-16	/	/	-13	-25	-20
Mtb hypoxia inh	8	0	-6	-2	9	/
Mtb hypoxia inh growth	12	-3	2	7	5	/
ugtP null kill	5	4	1	5	4	8
Autofluor counter	4336	/	/	16676*	11000	4571
BJeLR viability	3	/	/	0	0	2
